Source: PubChem BioAssay (several laboratories)
GALR2 ag = GALR2 receptor agonists, primary screen, cell-based; AID 803, 2007; Galanin receptor type 2 (Homo sapiens), O43603; activation, %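 (tested at 5 µM)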; GALR2-expressing cells, agonist activation read-out; 0.48% of 140,000 active;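 active = above mean plus 3 SD of all compounds, about 5% in these data, not always enough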;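 note: 0% = vehicle buffer wells and 100% = reference agonist at full effect; tested in CHO reporter cells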
Target sequence (O43603 whole entry, looked up): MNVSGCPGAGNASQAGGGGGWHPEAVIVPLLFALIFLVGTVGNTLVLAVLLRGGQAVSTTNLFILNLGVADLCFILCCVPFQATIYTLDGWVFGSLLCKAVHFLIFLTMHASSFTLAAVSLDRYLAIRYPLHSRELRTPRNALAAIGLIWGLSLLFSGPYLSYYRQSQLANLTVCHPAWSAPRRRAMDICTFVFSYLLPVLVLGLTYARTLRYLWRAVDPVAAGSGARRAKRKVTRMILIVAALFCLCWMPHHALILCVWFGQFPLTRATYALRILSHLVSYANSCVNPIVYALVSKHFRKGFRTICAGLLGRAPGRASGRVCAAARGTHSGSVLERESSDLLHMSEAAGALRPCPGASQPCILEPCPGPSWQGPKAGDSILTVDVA
RGS16-Gao = modulators of RGS16 binding to Galphao, primary screen, biochemical, human proteins, multiplexed bead flow cytometry | Regulator of G-protein signaling 16 (Homo sapiens) + Guanine nucleotide-binding protein … | bead-based flow cytometry RGS16-Galphao binding, fluorescence; actives lie on both sides | binding response (% of control), % at 10 µM | 0.38% of 220,000 active | AID 1441, 2008;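 active = below 25% or above 175%, edge rows of some plates excepted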;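 note: Galphao activated by GDP with aluminum fluoride before binding; 100% = wells without compound and 0% = beads without RGS; some results beyond the cut were filed as inactive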
Target sequence (O15492 whole entry, looked up): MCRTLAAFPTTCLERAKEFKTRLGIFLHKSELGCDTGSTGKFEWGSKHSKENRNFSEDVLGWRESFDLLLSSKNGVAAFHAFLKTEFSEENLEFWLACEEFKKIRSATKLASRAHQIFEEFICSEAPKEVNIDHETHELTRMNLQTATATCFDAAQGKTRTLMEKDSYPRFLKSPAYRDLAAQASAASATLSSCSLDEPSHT
Target sequence (P09471 whole entry, looked up): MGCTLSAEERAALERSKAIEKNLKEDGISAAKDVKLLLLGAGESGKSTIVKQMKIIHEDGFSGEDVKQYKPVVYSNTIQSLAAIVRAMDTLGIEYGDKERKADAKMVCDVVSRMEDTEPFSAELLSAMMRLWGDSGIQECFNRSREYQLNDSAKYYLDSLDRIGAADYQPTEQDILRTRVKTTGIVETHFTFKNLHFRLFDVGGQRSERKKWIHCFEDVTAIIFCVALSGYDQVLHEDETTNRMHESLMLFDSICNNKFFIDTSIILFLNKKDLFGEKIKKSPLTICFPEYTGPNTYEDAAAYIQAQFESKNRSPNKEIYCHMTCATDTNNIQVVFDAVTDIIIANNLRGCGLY
PKD1 inh = inhibitors of human PKD1 kinase, biochemical, fluorescence polarization. Serine/threonine-protein kinase D1 (Homo sapiens), Q15139. PKD1 kinase fluorescence polarization assay. inhibition, %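 (about 10 µM by stock and volumes)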. 0.056% of 200,000 active. AID 797, 2007;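 active = inhibition of 50% or more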;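 note: controls were vehicle for no effect and a reference inhibitor for full effect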
HSV augment = enhancers of HSV replication in host cells, fold increase, host cell viability; HSV replication augmentation in cells; AID 1956, 2009; maximum fold increase; 0.005% of 220,000 active;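 active = peak rise of 1.5-fold or more in the series; inconclusive = self-fluorescent or not available for retest; tested in PC3 cells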;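 note: first round at 10 µM; read as green reporter fluorescence; hits show the peak of a series up to 25 µM; 1 = signal of infected wells without compound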
INS promoter inh = inhibitors of insulin promoter-driven GFP, primary screen, imaging, TRM-6 cells (human fetal islet line), eGFP reporter, cell count | 0.9% of 130,000 active | AID 1273, 2008 | reporter expression induced with tamoxifen | inhibition, % at 2 µM;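 active = inhibition above the mean plus 3 SD, with well images judged a real hit on visual review, cut at about 60% in these data, passing the limit was not always enough; inconclusive = inhibition over the cutoff but images rejected on review; inactive = inhibition not above the cutoff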
INS promoter inh cell count = second read-out of INS promoter inh, no call of its own (marks repeat the call); normalized cell count, %; measured here: cell count, toxicity; reference of the scale not given here;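 cells exposed to compound for 48 h; stained nuclei by imaging scaled within each plate; lower means fewer cells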
HSV augment primary fold = second read-out of HSV augment, no call of its own (marks repeat the call); fold increase; compound at 10 µM; measured here: primary screen fold increase 10 uM; tested in PC3 cells;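 GFP signal in the first replicate; 1 = infected wells without compound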
Numbers without * were called inactive; i = inactive; ? = inconclusive; / = no result given.

Molecule,HSV augment,PKD1 inh,INS promoter inh cell count,RGS16-Gao,HSV augment primary fold,INS promoter inh,GALR2 ag
C=C(C)CNC(=S)N/N=C(\C)c1ccc(OC)cc1,i,11,/,102,0.95,/,-1.1
Oc1ccc2ccccc2c1C=NC1CCCCC1,i,-1,/,104,1.2,/,/
CCCCn1c(SC(C)C(=O)c2ccc(OC)cc2)nc2cc(S(N)(=O)=O)ccc21 (stereo unspecified),/,-7,137,96,/,-19,-0.7
O=C(CCc1ccccc1)NNc1ccc(F)cc1,i,/,/,95,1.1,/,/
C=CCSc1nc2sc3c(c2c(=O)n1CC=C)CCc1ccccc1-3,/,1,/,100,/,/,-0.4
Cc1cc2oc(C(=O)N(Cc3ccccc3)C3CCS(=O)(=O)C3)cc(=O)c2cc1Cl (stereo unspecified),i,4,62,102,0.83,-48,-0.7
CC(C)Oc1cc(N)c(Cl)cc1Cl,i,0,96,47,0.97,36,/
O=C(NCc1nc(-c2ccc(C(F)(F)F)cc2)no1)Nc1ccc(OC(F)(F)F)cc1,i,/,/,95,0.82,/,/
Cc1ccccc1-n1ncc2c(SCC(=O)NCc3cccs3)ncnc21,i,-15,78,116,0.88,42,-1.3
CCc1ccc(C(=O)CSc2nnc(C)c(=O)[nH]2)cc1,i,5,109,102,0.94,27,-1.9
CN(C1CCCCC1)S(=O)(=O)c1ccc(C(=O)N2CCN(c3nc4ccccc4s3)CC2)cc1,i,-6,69,98,0.92,-7,-1.4
N#CC1=C(N)OC2=C(C(=O)CCC2)C1c1ccoc1 (stereo unspecified),i,1,89,104,1.2,-71,/
O=C(NC1CC2CCCC(C1)N2S(=O)(=O)c1ccccc1)C1CCCCC1 (stereo unspecified),i,-6,65,101,0.85,29,-1.1
Cc1cc(C)cc(NC(=S)NN)c1,i,-5,75,94,0.94,29,/
Cc1nn(C)cc1CNCc1ccc(OCC(O)CN(C)Cc2ccccc2)cc1 (stereo unspecified),i,3,54,114,0.91,15,/

Later entries:
Molecule,HSV augment,PKD1 inh,INS promoter inh cell count,RGS16-Gao,HSV augment primary fold,INS promoter inh,GALR2 ag
O=C(/C=C/c1ccc2c(c1)OCCO2)c1ccc(O)cc1,i,/,/,100,0.73,/,/
CCN(CC)CCn1c(C)nc2c(sc3nc4c(cc32)COC(C)(C)C4)c1=O,i,/,/,99,0.96,/,/
CCn1cc(C(=O)OCC(=O)NCc2ccccc2Cl)c(=O)c2ccc(C)nc21,i,-4,10,108,1.1,-8,/
Cc1ccc(C(=O)Nc2nnc(-c3cccs3)s2)cc1C,/,-8,76,101,/,12,1.0
O=C(c1ccco1)c1cn(CC(=O)N2CCCc3ccccc32)c2ccccc12,i,-6,66,103,0.97,38,-0.3
O=C(CN1CC(=O)Oc2ccccc21)OCC(=O)c1ccc(Br)cc1,i,4,99,/,1,44,-5.5
Cc1ccc(S(=O)(=O)/N=S(/c2ccccc2)C(C)C)cc1 (stereo unspecified),i,/,/,88,0.96,/,/
CCOCCCn1c(SCc2nc3ccccc3s2)nc2ccccc2c1=O,i,-8,80,140,0.71,31,0.7
COc1ccc(C(=O)N/C(=C\c2cccc3ccccc23)C(=O)NCCc2c[nH]c3ccccc23)cc1OC,i,2,67,103,0.93,-27,-2.0
CCCCNC(=S)NCCN1CCN(C(=S)NCCCC)CC1,i,-1,124,113,0.95,-64,/
C1=C(C(c2nnnn2C2CCCCC2)N2CCCCC2)COc2ccccc21 (stereo unspecified),i,-3,117,93,0.85,-12,-2.8
CN1CCN(C(=O)C2=C[C@H](c3csc4ccccc34)C[C@H](OCCCCO)O2)CC1,i,3,/,98,0.88,/,/
Cc1ccc(Nc2nnc(SCC(=O)Nc3cccc(S(=O)(=O)NC4=NCCCCC4)c3)s2)cc1,i,-15,115,86,0.97,0,-1.7
Nc1ccn(Cc2ccccc2)n1,i,3,/,103,0.8,/,/
CCCCOc1ccc(NC(=O)CCSc2nccn2C)cc1,i,4,/,99,0.98,/,/

(listing goes on)
Molecule,HSV augment,PKD1 inh,INS promoter inh cell count,RGS16-Gao,HSV augment primary fold,INS promoter inh,GALR2 ag
CC(=N\Nc1ccc(Cl)cc1)/C(=N/O)C(=O)Nc1ccccc1,i,-20,111,87,1,-7,-2.6
C(=N\NC1=Nc2cccc3cccc1c23)/c1ccccn1,i,2,86,96,0.68,-58,/
Cn1cc(C(=O)NCc2ccc(F)cc2)c(=O)c2cc(S(=O)(=O)N3CCCCC3)ccc21,i,13,84,100,0.92,22,0.5
CCN(CC)C(=O)CSc1nnc(-c2cccs2)n1Cc1ccco1,i,2,/,69,1,/,-1.6
COc1ccc(/C(C)=N/NC(=O)Cc2c(C)nc(C)[nH]c2=O)cc1,i,3,148,97,1,-7,-0.5
N#Cc1ccc(NC(=O)COC(=O)CCc2nc3ccccc3c(=O)[nH]2)cc1,i,/,/,99,0.89,/,/
Cc1ccc(-c2nc3ccccc3o2)cc1NC(=S)NC(=O)c1cc2ccccc2o1,i,0,/,72,1,/,-1.2
COC(CNC(=O)c1c[nH]c2ccc(S(=O)(=O)N3CCC4(CC3)OCCO4)cc2c1=O)OC,i,-16,64,70,1.1,-400,-0.4
Cc1nc(N2CCN(c3ccccc3)CC2)[nH]c(=O)c1Cc1cccc2ccccc12,/,-1,87,94,/,0,0.6
C=CC(C)(C)c1cc2cc3ccoc3cc2oc1=O,i,0,101,109,0.87,-43,-1.1
COc1ccc(/C=C/CN2CCN(Cc3ccc(C)cc3)C(CCO)C2)cc1 (stereo unspecified),i,-5,82,109,0.92,18,/
O=C(C[n+]1ccccc1)Nc1ccccc1Br,i,-4,95,102,0.78,56,/
CCCOC(=O)Nc1nnc(CCC)s1,i,-5,102,106,0.79,14,-3.2
O=C(O)CSCC(=O)NCc1ccccc1Cl,i,-3,108,94,0.9,35,/
Cc1ccc(NC(=O)Cc2ccccc2Cl)cc1S(=O)(=O)N(C)C,i,-9,/,101,1.1,/,-0.7

(cont.)
Molecule,HSV augment,PKD1 inh,INS promoter inh cell count,RGS16-Gao,HSV augment primary fold,INS promoter inh,GALR2 ag
O=S(=O)(Cc1ccccc1)N1CCc2ccccc2C1,i,-3,145,103,1,-25,-1.2
Cc1ccc2[nH]c(=O)c(C(c3nnnn3CCc3ccccc3)N3CCOCC3)cc2c1 (stereo unspecified),i,4,110,100,0.96,33,1.0
CCOc1ccc2oc(C(=O)NC3CCN(Cc4ccccc4)CC3)c(C)c2c1,i,6,101,104,0.89,-65,/
O=C(CSc1nnc(CNC(=O)c2ccco2)o1)NC1CCCC1,i,-1,65,77,0.94,-45,-2.3
COC(=O)CC(=O)CSc1nc2c(cc1C#N)CCCCC2,i,-4,97,87,0.98,41,-1.2
Cc1cc(C)nc(NS(=O)(=O)c2ccc(NC(=O)CSc3ncn[nH]3)cc2)n1,i,-5,107,105,1,55,/
CC(=O)OCCCN1c2ccccc2Nc2nnc(-c3ccccc3)cc21,i,7,181,97,0.83,-3,-0.7
Cc1nnc2n1N=CC=C(c1ccccc1)S2,i,6,100,101,0.91,38,-1.1
COc1ccc(NC(=O)COC(=O)c2cc(OC)c(OC)c(OC)c2)c([N+](=O)[O-])c1,i,/,/,104,1,/,/
CC(C)C(NC(=O)c1cccnc1)C(=O)O (stereo unspecified),i,-2,/,103,1.1,/,/
O=C(CC1SC(=Nc2ccccc2)N(CCCCO)C1=O)NCc1ccccc1 (stereo unspecified),i,-14,107,104,1,-8,-0.9
C/C(=N/NC(=O)c1ccncc1)c1cc2ccc(O)cc2oc1=O,i,-12,/,110,0.94,/,7.5*
Oc1c(Cl)cc(Cl)cc1/C=N/NC(=S)NC1CC2C=CC1C2 (stereo unspecified),?,/,/,101,/,/,/
CCOC(=O)N1CCC(c2cc(=O)n(-c3ccccc3)[nH]2)CC1,i,9,/,97,0.88,/,/
CC[C@H](NC(=O)c1c(C)c(-c2ccccc2)nc2ccccc12)c1ccccc1,i,/,/,103,0.81,/,/

Grouped by structure, those above with fluorine (three)
Molecule,HSV augment,PKD1 inh,INS promoter inh cell count,RGS16-Gao,HSV augment primary fold,INS promoter inh,GALR2 ag
O=C(CCc1ccccc1)NNc1ccc(F)cc1,i,/,/,95,1.1,/,/
O=C(NCc1nc(-c2ccc(C(F)(F)F)cc2)no1)Nc1ccc(OC(F)(F)F)cc1,i,/,/,95,0.82,/,/
Cn1cc(C(=O)NCc2ccc(F)cc2)c(=O)c2cc(S(=O)(=O)N3CCCCC3)ccc21,i,13,84,100,0.92,22,0.5

Continued.
Molecule,HSV augment,PKD1 inh,INS promoter inh cell count,RGS16-Gao,HSV augment primary fold,INS promoter inh,GALR2 ag
CCC(C)/C(C)=N/Nc1ccc(S(N)(=O)=O)cc1[N+](=O)[O-] (stereo unspecified),i,-4,/,99,0.97,/,/
NC(=O)NOCc1ccccc1,i,4,/,101,1.1,/,/
Oc1ccc(CNc2ccccc2O)cc1,i,-10,39,91,0.99,-97,-2.0
COc1ccc(N=C2SC(CC(=O)Nc3ccc(F)cc3)C(=O)N2Cc2ccco2)cc1 (stereo unspecified),i,-6,/,98,0.99,/,-1.4
Cc1cccc(NC(=O)c2sc(C)nc2C)c1,i,-4,122,107,0.78,12,-0.5
O=C(NNC(=O)c1sc2ccccc2c1Cl)Nc1ccc(Cl)cc1,i,3,99,97,0.91,-20,-3.3
Cc1ccc(-n2c(C)csc2=N)cc1,i,-5,/,97,0.73,/,-2.2
COc1ccc(C(=O)Oc2cccc(/C=N/NC(N)=S)c2)cc1,i,-14,77,106,0.87,10,-1.8
COC(=O)CN1C(=O)S/C(=C/c2ccc(N3CCCCC3)o2)C1=O,?,-22,67,108,/,-184,-2.2
CN(C)c1ccc(C(=O)Nc2nc3c(s2)CCCC3)cc1,i,1,/,106,0.87,/,-0.8
Oc1ccc(N=Nc2nc(-c3ccccc3)c(-c3ccccc3)[nH]2)cc1,i,-10,48,109,1,-17,-2.2
COc1ccc(C2CC(c3cccs3)=Nc3ccccc3S2)cc1 (stereo unspecified),i,2,84,99,0.96,12,-0.9
COc1ccc2cc1Oc1ccc(cc1)CC1c3c(cc(OC)c4c3Oc3cc5c(cc3O4)CCNC5C2)CCN1C (stereo unspecified),i,/,/,98,0.58,/,/
O=C(CSc1nc2c(c(C(F)(F)F)n1)CCc1ccccc1-2)NCc1ccc(F)cc1,i,8,128,60,0.95,-129,-1.4
CC(C)(C)c1ccc(S(=O)(=O)NCc2ccc(C(=O)N3CCCC3)cc2)cc1,i,6,107,102,0.9,-17,-1.4

More results:
Molecule,HSV augment,PKD1 inh,INS promoter inh cell count,RGS16-Gao,HSV augment primary fold,INS promoter inh,GALR2 ag
Cc1ccc(S(=O)(=O)N2CCC(C(=O)Nc3nnc(COc4ccccc4)s3)CC2)cc1,i,2,108,103,0.84,0,0.3
Cc1cc(C(=O)COC(=O)c2ccc(O)cc2)c(C)n1CCc1ccc(F)cc1,i,3,46,107,1,0,/
O=C(C1CC1)N1CCN(c2ccnc3cc(Cl)ccc23)CC1,i,-9,95,98,0.83,-29,/
CCOC(=O)CSc1nnc(-c2c[nH]c3ccccc23)n1CC,i,-1,/,106,0.9,/,-2.2
CCOc1cc(/C=N\NC(=O)c2ccc(NC(=O)CC)cc2)ccc1OC(=O)c1ccccc1,i,1,110,104,0.87,-38,-2.5
C/C=C(\C)C(=O)NNC(=O)c1sc(-c2ccccc2)nc1C,i,/,/,105,0.94,/,/
CCOC(=O)c1sc(NC(=O)C2CCCO2)c(C(=O)OC)c1C (stereo unspecified),/,-9,73,/,/,-21,-3.9
O=S(=O)([O-])CCC[n+]1c(/C=C\Nc2ccccc2)oc2ccc(-c3ccccc3)cc21,?,-13,94,98,/,-376,/
CCCCCOC(=O)CSc1nc2c(c(=O)[nH]c(=O)n2C)n1Cc1ccc(Cl)cc1,i,-13,/,105,0.89,/,-0.5
COC(=O)c1n[nH]nc1-c1ccccc1,i,-1,71,112,0.91,-27,0.6
Cn1ccnc1Sc1nc(Nc2cccc(Cl)c2)nc(N2CCOCC2)n1,i,-1,100,100,0.77,16,-0.2
COc1cc(OC)c(NC(=S)Nc2cccc(C(C)=O)c2)cc1Cl,i,8,163,99,0.96,-15,-2.6
CCOC(=O)CSCC(=O)Nc1nnc(-c2cccc([N+](=O)[O-])c2)s1,i,-12,126,112,0.94,-2,-1.4
